VACV Venus inh: inhibitors of vaccinia virus (Venus reporter) | 330,000 compounds, 0.46% hits | AID 720580 | Potency, µM (doses to about 36.5 µM), without a hit: top-dose activity change, negative = inhibition, most hits filed as inhibitors | Vaccinia virus Venus reporter expression, fluorescence; active means well fitted inhibition curve with a large enough effect; inconclusive means small, poorly fitted or top-dose-only effect; inactive means no such curve, though single readings can be large or run the other way; tested in A549 cells; further: nearly all actives have a fitted effect of over 30% in size; inactives centre near -10
Vaccinia mCherry: vaccinia inhibition (mCherry reporter) | Vaccinia virus mCherry reporter infection, fluorescence; about a quarter of the inactives have no number | Potency, µM (titrated, usually from 36.5 µM), for the others: at the highest dose activity change, negative = inhibition, usual class: inhibitors | 310,000 compounds, 0.63% hits; active = well fitted inhibition curve with a large enough effect; inconclusive = small, poorly fitted or top-dose-only effect; inactive = no such curve, though single readings can be large or run the other way; tested in A549 cells; further: nearly all actives have a fitted effect of over 35% in size; inactives centre near -10
Starred values were filed as active, the others as inactive; i = inactive; ? = inconclusive; . = not tested or not shown; & = joins results of further samples; [ ] = dose if it differs, or a comment. On the % scale 0 is the no-effect control and ±100 the full control effect; potency means the concentration at half of the fitted maximal effect.

molecule | VACV Venus inh | Vaccinia mCherry
CC1CN(C(=O)CN2C(=O)NC3(CCCC3)C2=O)C(=Nc2cccc(S(=O)(=O)N(C)C)c2)S1 (configuration not stated) | -24% | -26%
COc1ccc(C(=O)Nc2c(N)nc(SCC(=O)NCC3CCCO3)[nH]c2=O)cc1 (configuration not stated) | -14% | -9%
COc1ccccc1C1CN(CC(=O)N[C@H]2CCCCNC2=O)Cc2ccccc2O1 (some centres not stated) | 6% | -15%
CCc1ccc(C(=O)NNc2ccc(F)cc2F)cc1 | -22% | i
COc1ccc(CNC(=O)/C=C/c2ccc(OCCCF)cc2)cc1 | -28% | .
CCOP(=O)(OCC)C(NC(=O)c1cccc2ccccc12)C(Cl)(Cl)Cl (configuration not stated) | -19% | ?
O=C1C(CCS(=O)c2ccccc2)C(=O)N(c2ccccc2)N1c1ccccc1 (configuration not stated) | -14%&-3% | 2%
COc1ccccc1CNc1nc2nc(C)c(Cl)c(C)n2n1 | -6% | -14%
Cc1ccc(NC(=O)Cn2c(=O)ccc3cc(S(=O)(=O)N4CCC(C)CC4)ccc32)cc1Cl | -25% | -22%
CC1Sc2ccc(C(=O)OCc3ccccc3Cl)cc2NC1=O (configuration not stated) | -12% | i
C=CCn1c(SCC(=O)Nc2c(C)n(C)n(-c3ccccc3)c2=O)nnc1-c1ccncc1 | -2% | -15%
COCCNC(=O)c1nn(-c2ccc(C)cc2)c(=O)c2c1c1ccccc1n2C | -10% | -16%
CCOc1ccc(C(=O)NCC(=O)N2CCN(c3ccccc3O)CC2)cc1 | -7% | ?
O=S(=O)(c1ccc(Cl)cc1)c1nnn2c1nc(NC1CCCCC1)c1sccc12 | -29% | i
Cn1c(=O)c2c(ncn2CC(=O)OCC(=O)Nc2cc(Cl)ccc2C#N)n(C)c1=O | -10% | -15%
COc1ccc2cc(C(=O)NCC3CCCO3)[nH]c2c1 (configuration not stated) | -9% | i
CCC1CCCCN1CCNC(=O)c1[nH]c(C)c(C(C)=O)c1C (configuration not stated) | -14% | i
CCOc1ccc(S(=O)(=O)N(C)CC(=O)NCc2ccccn2)cc1 | -2% | 7%
CCCCS(=O)(=O)CC(COc1ccccc1)OC(=O)c1ccccc1 (configuration not stated) | 7.9µM* | .
O=C1SC(SCc2ccccc2)=N/C1=C\c1ccc(C(=O)O)cc1 | -8% | -2%
Fc1cccc(CCN2C(=S)NC[C@@H]2CC2CCCCC2)c1 | -21% | -22%
O=C1CC[C@@H](CN(Cc2ccccn2)Cc2nc(Cc3cccc(C(F)(F)F)c3)no2)N1 | -9% | -3%
COc1cccc(CC(NC(C)=O)C(=O)NC2CCN(S(=O)(=O)c3ccc(C)cc3)CC2)c1OC (configuration not stated) | -8% | i
COc1ccccc1C1/C(=C(\O)c2ccc3c(c2)OCCO3)C(=O)C(=O)N1CCCn1ccnc1 (configuration not stated) | -5% | -9%
CC1(C(=O)NCc2ccccc2Br)CCN1C(=O)C1(c2ccc(Cl)cc2)CC1 (configuration not stated) | -4% | 26%
O=C(NCCCO)NC(=S)c1cccc2ccccc12 | -5% | -14%
CC(C)(C)NC(=O)C1CCC(CNS(=O)(=O)c2cccc3nsnc23)CC1 (configuration not stated) | -9% | -19%
CCOC(=O)c1c(C)[nH]c(C=O)c1Cc1cccc(Cl)c1 | ? | -6%
c1ccc(-c2nc(N3CCCC3)nc3ccccc23)cc1 | -3% | 3%
Cc1cc(F)ccc1C(O)c1ncc(-c2ccc(Cl)cc2)[nH]1 (configuration not stated) | -9% | 24%
CN1CCN(S(=O)(=O)c2cccc(C(=O)NCCOc3ccccc3)c2)CC1 | -9% | i
COc1ccc(CCNC(=O)c2c(O)nc3c(C)cccn3c2=O)cc1OC | -10% | -9%
Cc1ccc(C(=O)Nc2ccc(N3CCN(C(=O)c4ccco4)CC3)cc2)c(Cl)c1 | -9% | -17%
CCOC(=O)C1(c2ccccc2)Oc2ccccc2C(c2ccc(OC)cc2)=C1C(=O)OC (configuration not stated) | -4% | i
CC(=O)Nc1ccc(NC(=O)CSc2nncn2C)cc1 | -3% | i
CCn1cc(C(=O)NCc2ccc(F)cc2)c(=O)c2cc(S(=O)(=O)N(C)C)ccc21 | -5% | -17%
O=C(COc1ccc(Cl)cc1Cl)OCn1nnc2ccccc2c1=O | -10% | -16%
O=C1CSC(c2ccccc2)N1CC(O)c1ccc([N+](=O)[O-])cc1 (configuration not stated) | -10% | -5%
Cc1ccc2c(c1C)NC(C(=O)O)C1CC=CC21 (configuration not stated) | 0% | -3%
CCn1cc(S(=O)(=O)Nc2cc(F)ccc2C)cn1 | 0% | 3%
COc1ccccc1NC(=O)C1=C(C)Nc2ncnn2C1c1ccccn1 (configuration not stated) | -3% | -5%
CCN1CCSc2ccc(C(=O)NCc3ccccc3F)cc21 | ? | -19%
CCOc1ccc(CC(=O)Nc2cccc(-c3ccc4nnc(C)n4n3)c2)cc1 | -14% | -7%
O=C(CN1C(=O)C2C3C=CC(C3)C2C1=O)N1CCc2ccccc2C1 (configuration not stated) | -26% | .
O=C(Nc1cc(C(F)(F)F)ccc1N1CCOCC1)C1CCCO1 (configuration not stated) | -8% | -21%
O=C(COc1ccccc1)NCC(c1ccco1)N1CCCCC1 (configuration not stated) | -16% | -13%
CCn1cc(CN2Cc3ccccc3OC(c3ccccc3OC)C2)c(C)n1 (configuration not stated) | -7% | -14%
O=C(CSc1ncc(CO)n1Cc1ccccc1)Nc1nc2ccccc2s1 | -4% | -16%
COC(=O)c1ccc(CN2C(=O)NC(Cc3c[nH]c4ccccc34)C2=O)cc1 (configuration not stated) | -17% | -7%
Cn1c(N)c(-c2nc3cccnc3n2C)sc1=S | 1% | -2%

Continued; it opens with the 2 that closed the last part.
molecule | VACV Venus inh | Vaccinia mCherry
COC(=O)c1ccc(CN2C(=O)NC(Cc3c[nH]c4ccccc34)C2=O)cc1 (configuration not stated) | -17% | -7%
Cn1c(N)c(-c2nc3cccnc3n2C)sc1=S | 1% | -2%
COc1ccc(-n2ccn(CC(=O)Nc3ccc(C)cc3C)c(=O)c2=O)cc1 | -11% | -11%
CCN(C(=O)c1cc2c(=O)[nH]c3ccc(C)cc3c2s1)c1ccc(OC)cc1 | -7% | i
Cc1ccc(S(=O)(=O)N2CCC(C(=O)Nc3ccccc3N3CCCC3)CC2)cc1 | -29% | -18%
Cc1cccc(C)c1NC(=O)CN | -6% | -2%
O=C(Cn1cncn1)N/N=C/c1cccc(Cl)c1 | -10% | -16%
COC(=O)Cc1ccc(OC2(C)CCN(Cc3ccc(-c4ccccn4)cc3)C2)cc1 (configuration not stated) | -10% | i
COCCn1c(SCC(=O)c2ccc(F)cc2)nc2cc(C(=O)NC3CCCC3)ccc2c1=O | 4% | 0%
Cc1cc(OCc2cc(C(=O)N(C)CC3CCOCC3)no2)cc(C)c1Cl | -3%[7.34 µM] | -6%[7.34 µM]
CCN(CC(=O)NC1CCS(=O)(=O)C1)S(=O)(=O)c1ccc(Cl)c(C(F)(F)F)c1 (configuration not stated) | -10% | -21%
CC(C)NC(=O)CC(=O)N/N=C\c1ccccc1C(=O)O | -3% | -7%
CCOc1cc(C(c2c(C)[nH][nH]c2=O)c2c(C)[nH][nH]c2=O)cc([N+](=O)[O-])c1O | -15% | i
O=C(COC(=O)CNC(=O)C1CCCCC1)Nc1ccc(Br)cc1Br | -3% | -12%
Cc1cc(C)cc(OCC(=O)Nc2ccccc2N2CCCCC2)c1 | -8% | -2%
CCOC(=O)c1ccc(NC(=O)CSc2nnc3c4ccccc4n(CC)c3n2)cc1 | 5% | 14%
CCOC(=O)c1ccc2c(c1)n(CCCS(=O)(=O)[O-])c(/C=C/c1ccc(Cl)cc1)[n+]2CC | 0% | -8%
Cc1ccc(S(=O)(=O)Nc2nc(C)c(NC(=O)OCCCl)s2)cc1 | -9% | -9%
COc1ccc(NC(=O)C(Cc2ccccc2)n2cccc2)cc1 (configuration not stated) | -21% | -4%
Cn1c(=O)[nH]c(=O)c2c1nc(CN1CCN(c3ccccc3F)CC1)n2CCCc1ccccc1 | -16% | -25%
COC(=O)[C@]1(CC(C)C)N[C@H](c2ccc(-c3ccccc3)cc2)[C@@H]2C(=O)N(C)C(=O)[C@@H]21 | -23% | ?
CN(Cc1nc2ccccc2c(=O)[nH]1)Cc1nc2ccsc2c(=O)[nH]1 | -16% | -22%
C=CCC(NC(=O)N(C)C)(C(=O)OC)C(C)O (configuration not stated) | 11% | -14%
COc1ccc(C)cc1N(C)C(=O)c1coc(=O)c2ccccc12 | -14% | -9%
CCCCOP(=O)(OCCCC)C1(C)CC(=O)CC(C)(C)C1 (configuration not stated) | -14% | -28%
CC1(C(=O)NS(=O)(=O)c2cccc(F)c2)CCN1C(=O)Cc1ccccc1 (configuration not stated) | -3% | 7%
Cc1ccc(NC(=O)c2cccnc2C(=O)Nc2ccc(C)cc2)cc1 | ? | i
CCOc1ccc(C(=O)Nc2ccc(Cc3ccncc3)cc2)cc1Br | -18% | -2%
O=C(NNc1ccccc1)C(=O)NNc1ccccc1 | -14% | ?
COc1cc(-c2ccc(Cl)cn2)cc2c1OCCN(S(=O)(=O)C[C@]13CC[C@H](CC1=O)C3(C)C)C2 | -8% | -18%
COc1ccc(NC(=O)CN2C(=O)C3(SCC(=O)N3c3cccc(OC)c3)c3ccccc32)cc1 (configuration not stated) | -5% | 6%
O=C(CN1CCCCCC1)Nc1cc([N+](=O)[O-])ccc1Cl | 1% | ?
O=C(Cc1ccc(S(=O)(=O)N2CCOCC2)s1)NCC1CCCCC1 | -9% | 0%
O=C1NC(=O)N(Cc2ccco2)C(=O)/C1=C\c1ccc(-c2ccc(F)cc2)o1 | 15% | -20%
CC(C)C[C@@H]1NC(=O)N(CCN2CCOCC2)C1=O | -17% | .
Cc1cccc(NC(=O)CSc2ncnc3c2oc2ccccc23)c1 | -6% | i
C=CCNC(=S)Nc1c(N)n(C)c(=O)n(C)c1=O | -9% | i
O=C(Nc1ccccc1)c1csc(-c2ccccc2)n1 | -3% | i
O=C(CSc1ncn[nH]1)Nc1ccc([N+](=O)[O-])cc1Br | -28% | -3%
COc1ccc(-c2nc(CN3CCN(c4cc(C)nc(C)c4)CC3)c(C)o2)c2ccccc12 | 11µM* | ?
Cc1ccc(C)c(S(=O)(=O)c2cn(C)c3cc(N4CCCCC4C)c(F)cc3c2=O)c1 (configuration not stated) | -12% | -25%
CCOc1cc(CNc2ccc3c(c2)OCCO3)cc(Br)c1OCC | ? | ?
CC1(c2ccc(Cl)cc2Cl)NC(=O)N(CC(=O)Nc2ccc3[nH]c(=O)[nH]c3c2)C1=O (configuration not stated) | -6% | -4%
COc1cccc(CNS(=O)(=O)c2ccc3c(c2)CCN3C(=O)C2CC2)c1 | -8% | -10%
CCn1cc(C(=O)NCCc2ccc(C)cc2)c(=O)c2cc(S(=O)(=O)N3CCC(C)CC3)ccc21 | -26% | ?
CC1=C(C(=O)N2CCOCC2)CC(CC(=O)NC2CCCCC2)C(=O)N1Cc1ccc(C(C)(C)C)cc1 (configuration not stated) | -18% | -2%
CCOC(=O)Nc1ccc(S(=O)(=O)Nc2onc(C)c2C)cc1 | -1% | i
CCOc1ccccc1N1CCN(C(=O)C(F)(F)F)CC1 | -21% | .
CC1(C(=O)NC2CCc3ccccc32)CCN1CCc1ccccc1 (configuration not stated) | -9% | -9%
CCN(Cc1ccc(Br)s1)C(=O)CSc1nnc(C2CC2)n1C1CC1 | -17% | i
COc1ccc(C2C=C(c3ccccc3)Nc3nc(NS(=O)(=O)c4ccc(C)cc4)nn32)cc1 (configuration not stated) | -6% | -9%
O=C(O)CCCNS(=O)(=O)c1ccc2ccccc2c1 | -7% | -7%

Additional compounds:
molecule | VACV Venus inh | Vaccinia mCherry
C/C(=N\NC(=O)c1cc(C(C)C)[nH]n1)c1ccncc1 | -6% | 18%
CC(C)(C)OC(=O)C[C@@H]1C/C=C\C[C@H](CC(=O)N(CCO)Cc2ccccc2)C(=O)NCCOC1=O | -15% | i
Cc1cc(C)cc(N2C(=O)CSC2c2cccs2)c1 (configuration not stated) | -18% | -6%
Clc1cncc(Cl)c1N/N=C/c1ccccc1 | -17% | -14%
Cc1c(CC(=O)N2CCCCC2)c(=O)oc2cc3occ(C(C)(C)C)c3cc12 | -2% | -3%
CC(C)(C)OC(=O)NCCCCC1=CC2=CC(=O)C(C)(O)C(=O)C2=CO1 (configuration not stated) | -1% | i

Full records from above:
CC1(C(=O)NS(=O)(=O)c2cccc(F)c2)CCN1C(=O)Cc1ccccc1 (configuration not stated) across the screens: VACV Venus inh = -3%; Vaccinia mCherry = 7%
CCOc1ccc(C(=O)Nc2ccc(Cc3ccncc3)cc2)cc1Br across the screens: VACV Venus inh = -18%; Vaccinia mCherry = -2%
Cc1cc(F)ccc1C(O)c1ncc(-c2ccc(Cl)cc2)[nH]1 (configuration not stated) across the screens: VACV Venus inh = -9%; Vaccinia mCherry = 24%

Bioassay records as filed in PubChem BioAssay.

Not a hit list, and some 0.86% of all compounds hit somewhere here.
